From PubChem BioAssay
Sa RN4220 lethal = S. aureus RN4220 growth inhibition; inhibition, % (no concentration beside the values); 330,000 tested, 0.33% active; AID 1259311; OD600, 16 h;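 active = z-score of -3 or lower and OD600 up to 0.18 on both plates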;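 note: plate controls were untreated cells for no effect and reference antibiotic for full effect; stock transfer was 100 nL into about 80 µL; one replicate is shown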
ugtP null kill = compounds lethal to S. aureus RN4220 ugtP deletion mutant | 330,000 tested, 0.54% active | growth inhibition, % (no concentration beside the values) | OD600 growth, 16 h; some inactives read as strong as hits;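 active = z-score under -3 and OD600 up to 0.15 on both plates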;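 note: plate controls were untreated wells for no effect and antibiotic for full effect; wells of about 80 µL received 100 nL stock; the first replicate is given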
Mtb hypoxia rep = Mtb hypoxia fluorescent reporter inhibition; fluorescence inhibition, % (test concentration not listed); 300,000 tested, 0.1% active; M. tuberculosis hypoxia-regulated fluorescent reporter, fluorescence;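 active = 35 to 45% if threefold the growth effect, above 45% if 1.5-fold the growth effect; inactive = the rest, general growth blockers included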;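 note: wells of about 50 µL received 100 nL stock; 0% = vehicle wells and 100% = reference inhibitor wells; whole bacteria with a GFP reporter of the hypoxia response; strong numbers were not always called active; many hits fall short of the cut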
Bead autofluor = flagged as autofluorescent in microsphere protease counterscreen; compound autofluorescence counterscreen, microsphere flow cytometry; hits give high values; fluorescence intensity (test concentration not listed); 360,000 tested, 3.1% active; AID 624483;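 active = at least 3 SD above the mean of all compounds, about 16000 in these data; inconclusive = too few beads counted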;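 note: 100 nL of 1 mM stock went into each well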
BJeLR lethal = BJeLR cell viability loss; inhibition, % (concentration not given with the values); 300,000 tested, 0.17% active; AID 1554; BJeLR (HRASV12) viability, CellTiter-Glo ATP luminescence, 48 h; reference of the scale not given here;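 active = replicate mean above 50%; inconclusive = above 50% but judged a plate artefact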;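 note: 50 nL library stock added to about 25 µL; numbers are from one replicate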
PrP 5UTR inh = inhibition of PrP 5' UTR reporter expression | cell-based PrP 5' UTR mRNA reporter, plate reader | inhibition, % (concentration not given with the values) | 340,000 tested, 0.35% active;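 active = every replicate at 50% or more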;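 note: 0 = median of the neutral control wells; tested in H4 reporter cells; numbers are from one replicate; inactives centre near -14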
Mtb hypoxia rep growth = further read-out of Mtb hypoxia rep, marked with its call; growth inhibition, %; measured here: M. tuberculosis growth (absorbance);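 0% = vehicle and 100% = reference antibiotic; read after six days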
* hit, by the source's call; ? = inconclusive; . = not tested or not shown.

Labels used below – A = Sa RN4220 lethal; B = ugtP null kill; C = Mtb hypoxia rep; D = Mtb hypoxia rep growth; E = Bead autofluor; F = BJeLR lethal; G = PrP 5UTR inh
1. CC(C)(C)C(=O)NC(=S)Nc1sc2c(c1C#N)CCCCC2
  A: 5.0; B: 2; C: 6; D: 9; E: 2496; F: -19; G: -41
2. COc1ccc(S(=O)(=O)NCC(c2ccc(F)cc2)N2CCN(C)CC2)cc1 (stereo unspecified)
  A: 2.6; B: 6; C: 1; D: -5; E: 5819; F: 5; G: -11
3. CC(C)COc1ccc(C(=O)NNC(=O)c2ccc(=O)[nH]c2)cc1
  A: 2.8; B: 6; C: 12; D: 15; E: 4252; F: .; G: -4
4. COc1cccc2c(=O)c3c(cnn3C)n(C)c12
  A: -9.5; B: -2; C: .; D: .; E: 4193; F: 10; G: -28
5. O=C(c1cc2sccc2n1Cc1ccccc1)N1CCc2ccccc21
  A: -1.7; B: 17; C: 3; D: 13; E: 11691; F: -5; G: -14
6. COc1ccc(S(=O)(=O)N2CCC(C(=O)N(C)Cc3ccc(C)o3)CC2)cc1OC
  A: 0.0; B: 3; C: 5; D: 9; E: 6432; F: .; G: -16
7. Cc1ccc(C2(c3noc(CN(C)CCO)n3)CCCC2)cc1
  A: 5.2; B: 3; C: 8; D: -4; E: 4573; F: 5; G: -8
8. Cc1cc(C)n2nc(SCC(=O)N(C)Cc3ccccc3)nc2n1
  A: 0.4; B: -2; C: -9; D: 0; E: 9810; F: 12; G: 0
9. CN=c1scc(-c2cccs2)n1N=Cc1ccccc1O
  A: 5.0; B: 19; C: -2; D: 5; E: .; F: .; G: .
10. CCOCC(=O)Nc1ncc(S(=O)(=O)c2ccc([N+](=O)[O-])cc2)s1
  A: 91*; B: 70; C: 0; D: 8; E: 3669; F: 2; G: -12
11. Cc1ccc(-c2csc3ncnc(-n4cnc5ccccc54)c23)cc1
  A: 6.4; B: 7; C: 1; D: 4; E: 1981; F: 10; G: -23
12. Cc1nnc(SCC(=O)NN=Cc2cc(Cl)c(O)c(Cl)c2)s1
  A: -3.6; B: 3; C: 1; D: 5; E: .; F: .; G: .
13. O=c1[nH]c2ccccc2nc1N1CCOCC1
  A: 1.6; B: -3; C: .; D: .; E: 4581; F: 3; G: 12
14. O=C(Nc1ccc(N2CCOCC2)cc1)c1ccc(Cl)c(S(=O)(=O)N2CCCC2)c1
  A: 7.0; B: 7; C: 7; D: 1; E: 3178; F: .; G: -8
15. COc1ccc(S(=O)(=O)N2CCN(c3ccc(F)cc3)CC2)cc1C(=O)N1CCOCC1
  A: 1.9; B: 19; C: 3; D: 8; E: 3950; F: -17; G: -22
16. Cc1ccc(NC(=O)Nc2c(C)[nH]c(=O)[nH]c2=O)cc1Cl
  A: 0.2; B: 13; C: 2; D: 7; E: 3256; F: 2; G: -19
17. CC(=O)Nc1ccc(C(=O)N/C(=C\c2ccccc2)C(=O)Nc2cccc(C(=O)O)c2)cc1
  A: 3.2; B: 4; C: 11; D: 3; E: 3579; F: -13; G: .
18. CCN(C(=O)COC(=O)c1ccccc1Oc1ccccc1)c1c(N)n(Cc2ccccc2)c(=O)[nH]c1=O
  A: 5.1; B: 10; C: 10; D: 4; E: 2972; F: .; G: -20
19. Cc1ccc(NC(=O)c2noc3c2CCC3)cc1C
  A: 2.7; B: -3; C: 9; D: 0; E: 4983; F: 1; G: -81
20. CC(O)CNc1nc2ccccc2n1-c1ncnc2sc3c(c12)CCC3 (stereo unspecified)
  A: -0.2; B: -12; C: 3; D: -2; E: 3696; F: -2; G: -18
21. O=C1C=C(NNC(=O)c2cccnc2)CC(c2ccco2)C1 (stereo unspecified)
  A: 2.5; B: 9; C: 7; D: 12; E: 4465; F: -4; G: -29
22. CCOc1ccc(S(=O)(=O)N(CC(=O)Nc2cc(C)on2)Cc2ccccc2Cl)cc1
  A: 10; B: -1; C: -3; D: -4; E: 12756; F: 4; G: -19
23. COc1ccc(S(=O)(=O)N2CCCCC2)cc1NC(=O)CCCOc1ccc(C)cc1
  A: -0.1; B: -9; C: -3; D: 7; E: 3793; F: .; G: -17
24. NC(=O)c1ccccc1NC(=O)CC12CC3CC(CC(Br)(C3)C1)C2
  A: -1.3; B: 3; C: 4; D: 12; E: 5705; F: 0; G: -10
25. Cc1ccc(Cn2c(SCC(=O)N(C)C3CCS(=O)(=O)C3)nc3ccccc3c2=O)cc1 (stereo unspecified)
  A: 4.0; B: 7; C: 8; D: -2; E: 3767; F: 8; G: -12
26. OCC1(CCc2ccccc2)CCN(Cc2c(F)ccc(F)c2F)CC1
  A: 4.1; B: -2; C: 3; D: 3; E: 2126; F: 0; G: -16
27. COc1cc(OC)c(C(=O)OCC(=O)N2CCN(S(=O)(=O)c3ccc(C)cc3C)CC2)cc1OC
  A: 1.5; B: -4; C: 1; D: -6; E: 3973; F: .; G: -16
28. Cc1ccccc1NC(=O)CSc1nc2ccccc2c(=O)n1C
  A: 2.9; B: 13; C: 11; D: 2; E: 3824; F: 5; G: -19
29. COc1ccccc1N(Cc1cc(=O)[nH]c2ccccc12)C(C)=O
  A: 2.7; B: 3; C: 9; D: 5; E: 4088; F: -3; G: -8
30. Cc1ccc(C(=O)Nc2ccc3c(c2)OCO3)cc1Cl
  A: .; B: .; C: .; D: .; E: 7475; F: -5; G: -79
31. O=C1CC(c2ccccc2)CC(O)=C1C=NCCN1CCN(C(=O)Cc2ccccc2)CC1 (stereo unspecified)
  A: 3.7; B: -6; C: 6; D: 6; E: 9251; F: -1; G: -12
32. O=C(CN1CCC2(CC1)OCCO2)c1c[nH]c2ccccc12
  A: 6.5; B: 2; C: 10; D: 12; E: .; F: 7; G: .
33. CC1=C(C#N)C(NC(=O)c2ccco2)(C(F)(F)F)C(=O)N1 (stereo unspecified)
  A: 4.8; B: 5; C: 7; D: 11; E: 7849; F: -3; G: -8
34. CCOC(=O)c1ccccc1NC(=O)CN(c1ccccc1OC)S(C)(=O)=O
  A: 4.8; B: 10; C: 11; D: 7; E: 7137; F: 4; G: -26
35. CC1=CC(C)C(C(=O)O)C(C(=O)Nc2cccnc2)C1 (stereo unspecified)
  A: 2.7; B: -1; C: 2; D: 0; E: 3465; F: -1; G: -14
36. COCCCNc1nc2c(-c3cccc(C)c3)nnn2c2ccc(Cl)cc12
  A: 5.6; B: -1; C: 0; D: -5; E: 3190; F: 11; G: -10
37. CCCCOC(=O)C1=C(N)N2C(=O)C(C)SC2=C(C(=O)OCC)C1c1ccc(O)c(OC)c1 (stereo unspecified)
  A: -0.4; B: -2; C: 9; D: -6; E: 5001; F: 4; G: -12
38. Cc1ccc([N+](=O)[O-])cc1N(CC(=O)NCC1CCCO1)S(C)(=O)=O (stereo unspecified)
  A: 0.2; B: 4; C: -2; D: 6; E: 4002; F: 1; G: -35
39. NC(=NC(=O)c1ccccc1)C1=C(O)CCC1=O
  A: -9.9; B: -8; C: 14; D: 5; E: 2970; F: 7; G: -35
40. O=C(Nc1sc2c(c1C(=O)NC1CC1)CCCCCC2)c1ccco1
  A: 0.1; B: 3; C: 8; D: 2; E: 8124; F: 10; G: -6
41. CC1(C)Cc2ccccc2C(NN=C2CCCC2)=N1
  A: 6.1; B: 0; C: 11; D: 5; E: 3204; F: 2; G: -13
42. CCOC(=O)c1ccc(NC(=O)c2c(Cl)cc(C)nc2C)cc1
  A: 5.6; B: 17; C: -4; D: 0; E: .; F: -7; G: -5
43. CC(C)C[C@@H]1NC(=O)[C@H](Cc2ccccc2)N(C)C(=O)[C@H](C)NC(=O)c2ccccc2NC(=O)[C@H](Cc2ccc(O)cc2)N(C)C1=O
  A: -3.3; B: -3; C: .; D: .; E: 3932; F: 4; G: -1
44. CC(C(=O)N1CCc2ccccc21)N1CCN(Cc2ccccc2)CC1 (stereo unspecified)
  A: 3.3; B: 9; C: 8; D: -4; E: 3277; F: -3; G: -10
45. COC(=O)C1=C(C(=O)OC)[C@@H]2N(Cc3ccccc3)c3ccccc3[C@@]23C[C@@H](C(=O)OC)N(C(C)=O)C3=N1
  A: .; B: .; C: .; D: .; E: 3742; F: 8; G: -13
46. O=C1c2cccc3cccc(c23)C(=O)N1CC1CCN(S(=O)(=O)c2ccccc2)CC1
  A: 2.0; B: -1; C: -1; D: 5; E: 5086; F: .; G: -26
47. CCOC(=O)c1sc(-c2ccccc2)cc1NC(=O)CSc1nnnn1C
  A: 8.7; B: -13; C: 5; D: 0; E: 3220; F: 1; G: -2
48. COc1cc2nc(/C=C/c3ccc(N(C)C)cc3)sc2cc1SC
  A: 0.8; B: 7; C: -10; D: 6; E: 6632; F: .; G: -17
49. CCOCCCN(C(=O)Cn1nnc(-c2ccc(C)o2)n1)C(C(=O)NC1CCCC1)c1ccc(C)o1 (stereo unspecified)
  A: 3.0; B: 2; C: -13; D: 2; E: 5862; F: -7; G: -2
50. N#Cc1ccccc1NC(=O)C(=O)NCC1CCCN1S(=O)(=O)c1cccs1 (stereo unspecified)
  A: 2.7; B: 9; C: 8; D: 0; E: ?; F: 2; G: -6

New compounds follow
Labels used below – A = Sa RN4220 lethal; B = ugtP null kill; C = Mtb hypoxia rep; D = Mtb hypoxia rep growth; E = Bead autofluor; F = BJeLR lethal; G = PrP 5UTR inh
51. O=C(CNc1cc(S(=O)(=O)N2CCCC2)ccc1OCC(F)(F)F)Nc1cc(Cl)cc(Cl)c1
  A: 1.2; B: 3; C: 3; D: 9; E: .; F: -5; G: .
52. COC(=O)c1sc(NC(=S)NC(=O)c2ccccc2)nc1C
  A: 5.0; B: 21; C: 3; D: -1; E: 2626; F: 5; G: -58
53. CCC(C)NC(=O)c1ccc(-n2c(=S)[nH]c3ccccc3c2=O)cc1 (stereo unspecified)
  A: 10; B: 4; C: 3; D: 14; E: 4079; F: 0; G: -63
54. CSc1cccc(NC(=O)c2nnn(Cc3ccccc3)c2N)c1
  A: -1.9; B: -3; C: 23; D: 20; E: 9504; F: -2; G: -21
55. CC[C@H](C)[C@@H](NC(=O)O[C@@H]1C(=O)c2cc(Br)ccc2O[C@H]1c1cccc(OC)c1)C(=O)OC
  A: -2.2; B: -12; C: 1; D: 7; E: .; F: .; G: .
56. COC(=O)[C@]1(C)N[C@H](c2ccc(SC3CCCCC3)c(OC)c2)[C@@H]2C(=O)N(C)C(=O)[C@@H]21
  A: .; B: .; C: .; D: .; E: 3752; F: 12; G: -4
57. O=C(Nc1ccccc1)C1(c2ccccc2)CC1(Cl)Cl (stereo unspecified)
  A: 12; B: -28; C: 13; D: 1; E: 3679; F: -8; G: -31
58. CCOCCCNCc1cc(Br)ccc1OCC
  A: 8.2; B: 5; C: 13; D: 5; E: 3947; F: 7; G: -16
59. O=C(CSc1nc2c([nH]c3ccccc32)c(=O)n1-c1ccccc1)N1CCOCC1
  A: 2.5; B: -7; C: -1; D: 2; E: 5859; F: 4; G: -2
60. Cc1ccc(C)c(N2CCN(C(=O)Cn3ncn4cccc4c3=O)CC2)c1
  A: 6.7; B: 5; C: 3; D: 3; E: 4586; F: -8; G: -2
61. CC(C)(C)c1nc2cc(Cl)c([N+](=O)[O-])cc2o1
  A: 7.4; B: 6; C: 9; D: 13; E: 4342; F: -1; G: -17
62. COc1ccc(C2=NOC(C(=O)NCc3ccco3)C2)cc1 (stereo unspecified)
  A: 1.5; B: -2; C: 16; D: 17; E: 20757*; F: 19; G: -31
63. Cc1ncc([N+](=O)[O-])n1Cc1ccccc1F
  A: -4.0; B: -1; C: 1; D: -2; E: 3207; F: 9; G: -12
64. COc1ccc(CN2CCN(C(=O)C3CCN(C(=O)Nc4ccccc4)CC3)CC2)cc1OC
  A: 4.5; B: 1; C: 9; D: 4; E: 7313; F: .; G: -24
65. O=P(CO)(Cc1ccccc1)Cc1ccccc1
  A: 1.2; B: 1; C: .; D: .; E: 2607; F: -6; G: -1
66. CCN(CCO)C(=O)CC(c1ccccc1)c1cc(Br)ccc1O (stereo unspecified)
  A: 3.8; B: -1; C: .; D: .; E: 2228; F: 5; G: -13
67. COc1ccc(NC(=O)C2CCN(C(=O)[C@@H]3Cc4ccccc4CN3C(=O)OC(C)(C)C)CC2)cc1
  A: -2.5; B: 1; C: 9; D: -1; E: 5992; F: 2; G: -4
